Source: PubChem
Measles inh – inhibitors of measles virus growth in infected cells | infected Vero cells, GFP fluorescence, 64 h; hits give low values | z-score (test concentration not listed) | 33,000 tested, 0.1% active | AID 745;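 active means z-score under -3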;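 further: score is relative to mean and SD of the compound wells of a plate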
* hit, by the source's call. The list is partial; the hit share may differ from the screen's.

Measles inh | canonical_smiles
0.21 | COc1ccc(NC(=O)C(CCS(C)(=O)=O)NC(C)=O)cc1 (configuration not stated)
-1.1 | CCOC(=O)c1c(C)oc2cc(Br)c(OC(=O)c3ccc(F)cc3)cc12
-0.1 | Cc1cc(O)c2c(C)cc(=O)oc2c1
-1.6 | CC(C)c1ccc(N(C)C(=O)CCn2c(=S)oc3ccccc32)cc1
0.64 | COc1cccc(C=Nc2cccc(NC(=O)c3ccc(F)cc3)c2)c1O
1.2 | Cc1ccccc1NC(=O)C(C(C)C)N1C(=O)c2ccccc2C1=O (configuration not stated)
-0.85 | COCCNC(=O)C1c2ccccc2C(=O)N(C)C1c1ccc(OC)cc1 (configuration not stated)
-0.31 | CCOC(=O)c1cc2c(=O)n3ccccc3nc2n(CCOC)c1=NC(=O)c1ccc(-c2ccccc2)cc1
-0.31 | CCOc1ccc(NC(=O)c2sc3c(c2N)C(c2ccc(Cl)cc2)C2=C(CCCC2=O)N3)cc1 (configuration not stated)
-1.5 | CC1CCC(N2CCN(Cc3ccccn3)CC2)CC1 (configuration not stated)
-0.04 | COC(=O)c1ccc(C=Nc2c(C)n(C)n(-c3ccccc3)c2=O)cc1
1.6 | CN1CCN(C(C(=O)NC2CCCC2)c2ccc(Cl)cc2)CC1 (configuration not stated)
0.06 | CCCN(CCC)C(=O)C[n+]1ccc(C(N)=O)cc1
-0.38 | COc1ccc(Nc2cc(-n3nc(C)cc3-c3ccccc3)ncn2)cc1
0.21 | O=C(CC1Nc2c3ccccc3nc(=S)n2C1=O)NCc1ccccc1Cl (configuration not stated)
-0.76 | O=C(CSc1nc2ccccc2c(=O)n1Cc1ccc2c(c1)OCO2)c1ccc(Cl)cc1
-1.3 | CCOC(=O)c1[nH]c2ccccc2c1NC(=O)C12CC3CC(CC(C3)C1)C2
0.89 | O=C(O)c1ccccc1C(=O)Nc1cc(C(F)(F)F)ccc1Cl
2.5 | O=C(O)c1cc(C=Nc2ccc3c(c2)OCCOCCOCCO3)ccc1O
-0.83 | CC1=C(C(=O)OCC2CCCCC2)C(c2cccc(Br)c2)NC(=O)N1 (configuration not stated)
-1.4 | O=[N+]([O-])c1ccccc1S(=O)(=O)N1CCN(C2CCCCC2)CC1
0.82 | O=C(NC1CCCC1)c1ccc2c(c1)N(Cc1ccc(F)cc1)C(=O)CS2
0.07 | COc1ccccc1C(=O)NCCn1cc(SCc2ccc(F)cc2)c2ccccc21
-0.22 | NC(=O)c1ccc[n+](CC(=O)c2ccc([N+](=O)[O-])cc2)c1
-0.71 | CCOc1cccc(C2CC(c3cccc(Br)c3)=NC(c3ccccc3OC)N2)c1O (configuration not stated)
-0.58 | CCN(CC)c1ccc(NC(=O)c2ccc(-c3ccc([N+](=O)[O-])cc3)o2)cc1
-0.32 | COC(=O)CN(C)C1CC(=O)N(c2ccc(Cl)cc2)C1=O (configuration not stated)
-0.36 | O=C(C1CCC(Cn2c(=S)[nH]c3ccccc3c2=O)CC1)N1CCN(C2CCCCC2)CC1 (configuration not stated)
0.63 | COC(=O)C1=C(C)Nc2ncnn2C1c1ccc(OC)cc1 (configuration not stated)
-0.12 | COc1cc2c(cc1OC)C(COc1ccccc1OC)N(C(=O)Nc1ccc(Cl)cc1)CC2 (configuration not stated)
0.37 | CC(C)(C)c1ccc(C(=O)Nc2ccc(O)c(-c3nc4ccccc4o3)c2)cc1
-0.42 | O=C(c1sc2ccccc2c1Cl)n1cccn1
-0.14 | COc1cccc(Nc2ncnc3nc[nH]c23)c1
-0.2 | Cc1nc2sc(C(=O)Nc3ccccc3)c(N)c2c(C)c1[N+](=O)[O-]
0.39 | CCc1c(C)sc(NC(=O)c2cc3ccccc3c(=O)o2)c1C(N)=O
-2.4 | CCOC(=O)c1cnc2ccccc2c1Nc1ccccc1C
-0.04 | Cc1ccc(-n2nc3cc(C)c(NC(=O)c4ccco4)cc3n2)cc1
0.5 | CN(C)C(=O)CSc1nnnn1C
-0.42 | O=C(Nc1ccc(C(F)(F)F)cc1)c1cc(S(=O)(=O)NCc2ccco2)ccc1F
0.58 | COc1ccc(OCCNC(=O)CSc2ccc(C(F)(F)F)cc2[N+](=O)[O-])cc1
-0.24 | C=CCN1C(=O)N(CC=C)c2cccc3cccc1c23
-0.6 | Cc1ccc(C)c(OCC(=O)Nc2ccc(Cl)c(C(F)(F)F)c2)c1C
-0.05 | O=C(c1cccnc1)N1CCN(C(=O)c2cccs2)CC1
-0.89 | Cc1ccc(S(=O)(=O)Nc2ccc(O)c(S(=O)(=O)c3ccc(C)cc3)c2)cc1
0.78 | CCC(=O)N1c2ccc(S(=O)(=O)CCC(=O)N3CC=C(c4ccccc4)CC3)cc2CC1C (configuration not stated)
-0.49 | COc1cccc(C(=O)Nc2ccc(C(=O)O)cc2)c1
0.29 | O=C1C2CC=C(Cl)CC2C(=O)N1CC1OCCc2ccccc21 (configuration not stated)
0.29 | COc1ccc(S(=O)(=O)N(CC(=O)NC(C)(C)C)c2ccc(C)cc2)cc1
-0.36 | CC(C)CCN1C(=O)c2ccc(-c3nc4cc(Cl)ccc4c(=O)o3)cc2C1=O
0.28 | Cc1c(NC(=O)c2ccccc2[N+](=O)[O-])cccc1-c1nc2ccccc2o1
0.7 | Cc1ccc(NC(=O)Cn2cnc3sc(C(=O)NCc4ccccn4)c(C)c3c2=O)cc1Cl
1.7 | CCCCNC(=O)c1ccc2c(c1)ncn2C1CCCCC1
0.33 | O=C(Cc1c(O)c2ccccc2[nH]c1=O)NCc1ccc(F)cc1
-1.5 | O=C(Cc1ccc(-n2c(=S)[nH]c3ccccc3c2=O)cc1)NCCCN1CCN(c2cccc(Cl)c2)CC1
0.75 | CCN1C(=O)C(O)(CC(=O)c2ccccn2)c2ccccc21 (configuration not stated)
-0.69 | c1ccc2c3c(c(CN4CCCCC4)cc2c1)COC3
0.75 | CCN1CCN(CCCNC(=O)C2c3ccccc3C(=O)N(C)C2c2cn(C)c3ccccc23)CC1 (configuration not stated)
0.04 | O=C(CC1N=C2c3ccccc3N=C(SCc3ccccc3F)N2C1=O)NCCc1ccccc1 (configuration not stated)
-0.18 | COc1ccc(NC(=O)Nc2nonc2C)cc1
-0.81 | COc1ccc(OC)c(C2NC(=O)c3[nH]nc(-c4ccccc4)c32)c1 (configuration not stated)

Structures from the list above containing a nitro group on carbon, in the order listed:
Measles inh | canonical_smiles
-1.4 | O=[N+]([O-])c1ccccc1S(=O)(=O)N1CCN(C2CCCCC2)CC1
-0.22 | NC(=O)c1ccc[n+](CC(=O)c2ccc([N+](=O)[O-])cc2)c1
-0.58 | CCN(CC)c1ccc(NC(=O)c2ccc(-c3ccc([N+](=O)[O-])cc3)o2)cc1
-0.2 | Cc1nc2sc(C(=O)Nc3ccccc3)c(N)c2c(C)c1[N+](=O)[O-]
0.58 | COc1ccc(OCCNC(=O)CSc2ccc(C(F)(F)F)cc2[N+](=O)[O-])cc1
0.28 | Cc1c(NC(=O)c2ccccc2[N+](=O)[O-])cccc1-c1nc2ccccc2o1

New compounds follow:
Measles inh | canonical_smiles
-1.7 | CC(=O)c1c(C)[nH]c(C(=O)N2CCN(C(=O)c3ccco3)CC2)c1C
-0.16 | CCCN(CCC)C(=O)c1cc2c(n(-c3ccccc3)c1=O)CC(C)(C)CC2=O
-1.6 | COc1ccc2c(c1)NC(C)(C)c1sn(-c3ccccc3C)c(=S)c1-2
3.9 | CC(C)(C)c1ccc(S(=O)(=O)Nc2nccs2)cc1
0.21 | COc1ccc(-c2c(C(F)(F)F)oc3cc(O)ccc3c2=O)cc1
-1.6 | CCc1cc2c(=S)c(-c3ccccc3)c(C)oc2cc1OC
-1.4 | CC1(C)CC(=O)C2=C(C1)N(CCc1ccccc1)C1=C(C(=O)CC(C)(C)C1)C2c1ccc(F)cc1
1.1 | COC(=O)c1sc2ccccc2c1NC(=O)c1ccccc1
-0.87 | Cc1cc(N2CCC(C)CC2)nc2ccc(NC(=O)CCC(=O)NC(C)C)cc12
0.5 | CCC(=O)N1CCc2cc(S(=O)(=O)Nc3cc(Cl)ccc3OC)ccc21
-0.29 | O=C(CSc1nc2c([nH]c3ccccc32)c(=O)n1-c1ccccc1)Nc1ccc(Cl)cc1
-0.25 | CCc1ccccc1N/C(N)=N/c1nc(C)cc(C)n1
0.07 | COc1ccc(C(=O)Oc2ccc(C=Nc3ccc(Br)cc3)cc2)cc1
-0.04 | O=c1[nH]c(SCc2ccccc2)nc2ccccc12
-0.33 | Cc1ccc(NC(=O)c2sc3ncn(C)c(=O)c3c2C)cc1
1.9 | Cc1cc(OCc2nc(-c3cccc([N+](=O)[O-])c3)no2)ccc1Cl
-1.1 | Cc1c(C(=O)NCCCN2CCOCC2)sc2ncn(C)c(=O)c12
-0.78 | CCN(C(=O)CCS(=O)(=O)c1ccc2c(c1)CCN2C(C)=O)c1ccccc1
1.7 | Cc1ccc(C)c(NC(=O)C2CCN(S(=O)(=O)c3ccccc3)CC2)c1
-0.15 | COc1cccc(-c2cc(C(=O)Nc3ccc(OC)cc3OC)no2)c1
0.34 | CC1=CCC2C(=O)N(c3cccc(O)c3)C(=O)C2C1 (configuration not stated)
-1.3 | CC1=C(C(=O)OC2CCCCCC2)C(c2ccc3c(c2)OCO3)NC(=O)N1C (configuration not stated)
4.5 | COc1ccccc1N=c1oc2cc(OC(C)=O)ccc2cc1C(=O)NC(C)=O
0.01 | CN(C)CCNC(=O)CN1C(=O)CSc2ccc(S(=O)(=O)N3CCCCC3)cc21
0.88 | O=C(Nc1cccc(-c2cn3ccsc3n2)c1)c1cccs1
1.2 | O=C1NC(c2ccc(OCc3ccccc3)cc2)C(C(=O)c2cccs2)C(O)(C(F)(F)F)N1 (configuration not stated)
0.13 | COc1ccc(NC(=O)c2ccc(N3C(=O)CCC3=O)cc2)c2ccccc12
-0.41 | CCOc1ccccc1C(=O)Nc1ccc2nc(N3CCN(C)CC3)cc(C)c2c1
0.9 | COc1ccc(NC(=O)C2c3cc(OC)c(OC)cc3C(=O)N(C)C2c2cccs2)cc1OC (configuration not stated)
-0.27 | Cc1ccc(C)n1-c1ccc(OCC(=O)O)cc1
-0.83 | CC(C)NC(=O)C(C)N1C(=O)COc2ccc(Cl)cc21 (configuration not stated)
1.6 | CCOc1ccc(-n2c(=O)c3sccc3n(CC(=O)C(C)(C)C)c2=O)cc1
-1 | Cc1ccccc1CSC1=NCCN1C(=O)c1ccc(C)c([N+](=O)[O-])c1
1.7 | Cc1ccc(Nc2c(-c3coc(Br)c3)nc3ccc(Cl)cn23)cc1
-0.41 | COc1ccccc1NC(=O)c1c(NC(=O)Cc2ccccc2)sc2c1CCC(C(C)(C)C)C2 (configuration not stated)
0.39 | COc1cccc(C2=NN(C(=O)Cc3ccc([N+](=O)[O-])cc3)C(O)(C(F)(F)F)C2)c1 (configuration not stated)
0.39 | CC(=O)N1CCc2cc(Br)cc(S(=O)(=O)N3CCC(C(=O)Nc4ccccc4Cl)CC3)c21
-0.45 | COc1ccc(C(=O)N2CCN(S(C)(=O)=O)CC2)cc1OC
-0.05 | COc1ccc2cc3cc(C(=O)Nc4ccc(C)cc4Cl)sc3nc2c1
0.22 | Nc1ccc2c(c1)-c1cc(N)ccc1OCCOCCOCCOCCO2
0.67 | O=C(O)c1cc(C(c2ccc(O)c(C(=O)O)c2)C(Cl)(Cl)Cl)ccc1O
-0.98 | Cc1c(Br)c(C(F)(F)F)nn1CC(=O)N(C)c1ccccc1
-0.28 | O=C(NCCO)NCC12CC3CC(CC(C3)C1)C2
-1.1 | Cc1ccc2nc(-c3cccs3)c(Nc3ccc4c(c3)OCCO4)n2c1
-0.57 | CC(C)CNC(=O)c1nn2c(C(F)(F)F)cc(-c3cccs3)nc2c1Cl

Some of these compounds in order of formula weight, lowest first:
Measles inh | canonical_smiles
-0.83 | CC(C)NC(=O)C(C)N1C(=O)COc2ccc(Cl)cc21 (configuration not stated)
0.22 | Nc1ccc2c(c1)-c1cc(N)ccc1OCCOCCOCCOCCO2
-0.57 | CC(C)CNC(=O)c1nn2c(C(F)(F)F)cc(-c3cccs3)nc2c1Cl
0.67 | O=C(O)c1cc(C(c2ccc(O)c(C(=O)O)c2)C(Cl)(Cl)Cl)ccc1O

Next section.
Measles inh | canonical_smiles
0.33 | COC(=O)c1ccc2c(=O)[nH]c3c(C(=O)Nc4ccc(F)cc4)sc(=S)n3c2c1
-0.77 | CC(C)(C)c1ccc(C(=O)N2N=C(c3ccccc3)CC2(O)C(F)(F)F)cc1 (configuration not stated)
-0.31 | COC(=O)C1=C(C)NC2=C(C(=O)CC(c3ccc(Cl)cc3)C2)C1c1ccc2c(c1)OCO2 (configuration not stated)
0.29 | CCCCC1=NN(C(=O)c2ccc(C)o2)C(O)(C(F)(F)F)C1 (configuration not stated)
2.1 | Cc1cccc(N2C(=O)C(Cl)=C(Nc3ccc(S(N)(=O)=O)cc3)C2=O)c1C
-0.92 | O=C(Nc1nonc1-c1nc2ccccc2n1Cc1ccccc1)c1ccc(F)cc1
-0.08 | COC(=O)c1ccc(N2CCC(C)CC2)c(N)c1
0.29 | O=C(CSc1nc2ccccc2c(=O)n1CC1COc2ccccc2O1)N1CCCC1 (configuration not stated)
-1.1 | Cc1ccc(NC(=O)c2cc(S(=O)(=O)NC3CCCC3)ccc2F)cc1C
0.49 | CCN(CC)C(=O)CSc1nc2ccccc2c(=O)n1CC1COc2ccccc2O1 (configuration not stated)
-0.16 | Cc1cc(C)c(NC(=O)Nc2cccc(Cl)c2)c(Cl)n1
0.3 | CC(NC(=O)c1nn2c(c1Cl)NC(c1ccc(Cl)cc1)CC2C(F)(F)F)c1ccccc1 (configuration not stated)
-0.12 | CCOc1ccc2nc(C)cc(Nc3ccc(C(=O)OC)cc3)c2c1
1 | O=C(CCCn1c(=O)[nH]c2cc(Cl)ccc2c1=O)NCc1ccc2c(c1)OCO2
0.38 | O=C(O)CSc1nc2c(cnn2-c2ccc(F)cc2)c(=O)[nH]1
0.91 | Cc1nc2c(C(=O)NCCCN3CCCCC3C)cnn2c(C)c1Cc1ccccc1 (configuration not stated)
0.19 | COc1ccc(CNC(=O)CCN2C(=O)C3C4C=CC(CC4)C3C2=O)cc1 (configuration not stated)
0.77 | CC1(C)CC(=O)C2=C(C1)c1c(ccc3ncccc13)NC2c1cccc(Br)c1 (configuration not stated)
0.23 | Nc1nc2n(n1)C(c1ccccc1)CC(c1ccc(Br)cc1)N2 (configuration not stated)
0.26 | COc1cccc(C=Nc2ccc3oc(-c4ccccc4Cl)nc3c2)c1O
